Screens deposited in PubChem BioAssay by several laboratories.
UUG fidelity = yeast start codon fidelity modulation; S. cerevisiae UUG-firefly luciferase reporter, luminescence/redox ratio; AID 602363; activity score, % at 18.7 µM; actives 0.13% (n = 350,000);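 active = replicate mean at a twofold rise or more, about +100% in these data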;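 also: firefly luciferase made from a UUG start codon reports start codon fidelity; reporter light over untreated wells divided by growth signal over untreated wells; some hits fall short of that in this replicate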
HIV Env fusion = blocks HIV Env-driven cell-cell fusion; HeLa-JRFL Env/CEM21 cell fusion, luciferase; inhibition, % at 12.3 µM; actives 1.1% (n = 360,000);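 active = mean replicate inhibition score of at least 50 and every replicate individually at or above 50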;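 also: 0% = plate neutral controls and 100% = maraviroc near 300 nM; one replicate is shown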
MT1-MMP act inh = MT1-MMP (human) activation inhibition. AID 651647. GFP/RFP ratio change, % at 20 µM. actives 0.061% (n = 360,000). HT1080 RFP-PRO-GFP cells, GFP/RFP ratio fluorescence, overnight; percent of plate control window, DMSO zero. P50281;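 active = GFP/RFP ratio change of at least 30% with cell ATP level not reduced by more than half and red fluorescence within 50% of control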; also: strong numbers were not always called active
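Material: RFP-PRO-GFP reporter HT1080 cells. Dosing: single-point 20 µM compound, 1% DMSO. Controls: DMSO and RFP-L50D-GFP cell wells. Timing: cells overnight before dosing, compound overnight, 37 °C, 5% CO2. Measure: GFP/RFP fluorescence ratio.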
PABP polyA inh = blocks human PABP binding to poly(A) RNA | P11940 | fluorescence polarization | inhibition, % at 35 µM | actives 1% (n = 290,000) | AID 2014;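 active = 50% or more with normal probe brightness, or confirmed in later tests; about a fifth of its hits are not listed in these tables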;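 also: calls also rest on retests at 20 µM and on dose response follow-up; controls were probe without protein and protein plus probe with vehicle; some compounds called inactive have numbers as strong as hits; many hits fall short of the cut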
Target sequence (P11940 whole entry, looked up): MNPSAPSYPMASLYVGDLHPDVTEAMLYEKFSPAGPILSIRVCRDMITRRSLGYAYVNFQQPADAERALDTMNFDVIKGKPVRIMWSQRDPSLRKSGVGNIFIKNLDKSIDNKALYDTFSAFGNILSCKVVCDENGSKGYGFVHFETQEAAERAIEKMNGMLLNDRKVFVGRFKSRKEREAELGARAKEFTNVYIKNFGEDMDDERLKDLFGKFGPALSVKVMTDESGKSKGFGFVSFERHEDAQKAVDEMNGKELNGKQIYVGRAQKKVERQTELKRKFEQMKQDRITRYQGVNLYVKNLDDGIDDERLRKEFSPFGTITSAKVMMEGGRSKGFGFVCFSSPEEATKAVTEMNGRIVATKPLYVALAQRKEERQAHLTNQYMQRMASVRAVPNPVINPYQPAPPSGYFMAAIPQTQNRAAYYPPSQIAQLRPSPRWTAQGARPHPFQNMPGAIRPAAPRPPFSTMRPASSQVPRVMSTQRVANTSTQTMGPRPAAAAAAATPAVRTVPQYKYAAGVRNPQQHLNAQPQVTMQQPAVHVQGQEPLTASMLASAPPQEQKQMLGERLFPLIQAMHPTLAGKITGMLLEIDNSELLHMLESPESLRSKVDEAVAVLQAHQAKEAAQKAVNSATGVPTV
CSC inhib = blocks cancer stem cells. cancer stem cell-like cells viability, luminescence. inhibition, % at 7.5 µM. actives 1.1% (n = 300,000). AID 2717;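 active = mean at 75% or more and at least half the replicates too; tested in HMLE shEcad cells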;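 also: 0% = median of negative and 100% = median of positive control wells; the first replicate is given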
eIF4H inh = inhibitors of RNA binding by human eIF4H. Q15056. eIF4H fluorescence polarization binding assay. inhibition, % at 35 µM. actives 0.94% (n = 290,000);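 active = 50% or more with normal probe brightness, or confirmed in later tests; about a fifth of its hits are not listed in these tables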;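 also: calls also rest on retests at 20 µM and on dose response follow-up; 0% = protein and probe with vehicle and 100% = probe without protein; strong numbers were not always called active; many hits fall short of the cut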
Rce1 inhib = blocks yeast Ras-converting enzyme; yeast membranes, quenched prenylated peptide cleavage fluorescence; actives 0.27% (n = 290,000); Q03530; calls only;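 active = fall in fluorescence gain of 50% or more versus controls, with final raw signal at or below 3038400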;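 also: plate controls were neutral control wells for no effect and wells lacking membranes for full effect; tested at 10 µM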
eIF4H inh retest = further read-out of eIF4H inh, marked with its call; inhibition, %; compound at 20 µM; confirmation average;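 mean of two retest wells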
PABP polyA inh retest = also measured in PABP polyA inh; calls as there; inhibition, %; compound at 20 µM; confirmation repeats;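 mean of two retest wells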
MT1-MMP act inh RFP = further read-out of MT1-MMP act inh, marked with its call; RFP signal change, %; measured here: RFP expression control read;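 0 = vehicle wells; hits needed this value within 50% of zero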
An asterisk follows results filed as active; i = inactive; . = no result given. These rows are one share of the data, so the mix of outcomes need not match the whole.

The opening 4 records as a preview:
SMILES | UUG fidelity | HIV Env fusion | MT1-MMP act inh | MT1-MMP act inh RFP | PABP polyA inh | CSC inhib | eIF4H inh | Rce1 inhib | others
Cc1cccc(-c2cccc(NC(=O)C3CCCN(C(=O)c4csc(C)n4)C3)c2)c1 (stereo not drawn) | -2 | 9 | 2 | -23 | 8 | 5 | 4 | i
COC(=O)c1cc(S(=O)(=O)N2c3ccccc3CC2C)c[nH]1 (stereo not drawn) | -7 | 1 | 1 | -1 | . | -2 | . | i
Cc1c(NC(=O)c2c(F)c(F)c(F)c(F)c2F)c(=O)n(-c2ccccc2)n1C | -14 | -36 | -4 | 6 | -4 | -1 | -5 | i
COC(C(=O)Nc1ccnn1C1CCN(Cc2cnn(C)c2)CC1)c1ccccc1 (stereo not drawn) | -18 | . | 1 | 6 | -6 | -11 | -15 | .

Main list, repeating the preview:
SMILES | UUG fidelity | HIV Env fusion | MT1-MMP act inh | MT1-MMP act inh RFP | PABP polyA inh | CSC inhib | eIF4H inh | Rce1 inhib | others
Cc1cccc(-c2cccc(NC(=O)C3CCCN(C(=O)c4csc(C)n4)C3)c2)c1 (stereo not drawn) | -2 | 9 | 2 | -23 | 8 | 5 | 4 | i
COC(=O)c1cc(S(=O)(=O)N2c3ccccc3CC2C)c[nH]1 (stereo not drawn) | -7 | 1 | 1 | -1 | . | -2 | . | i
Cc1c(NC(=O)c2c(F)c(F)c(F)c(F)c2F)c(=O)n(-c2ccccc2)n1C | -14 | -36 | -4 | 6 | -4 | -1 | -5 | i
COC(C(=O)Nc1ccnn1C1CCN(Cc2cnn(C)c2)CC1)c1ccccc1 (stereo not drawn) | -18 | . | 1 | 6 | -6 | -11 | -15 | .
Cc1ccccc1OCC(=O)Nc1nnc(C2CC2)s1 | -6 | . | 3 | -1 | . | -1 | . | .
CN(CCc1ccccn1)C(=O)CC1C(=O)NCCN1Cc1ccc(-c2ccccc2)cc1 (stereo not drawn) | . | 9 | 8 | 3 | -1 | -16 | 17 | i
COc1cc(OC)cc(-c2nnc(SCc3ccc(C(=O)O)cc3)o2)c1 | -18 | 10 | 1 | 0 | 1 | -8 | 13 | i
O=C(NC(Cc1ccccc1)C(=O)N1CCc2ccccc2C1)c1ccccc1 (stereo not drawn) | -6 | 6 | -1 | 0 | 4 | 7 | 1 | i
COC(=O)C1=C(NC(=O)CCCCl)CCS1 | . | . | 3 | 5 | -4 | -9 | -3 | i
COc1ccc(/C=C2\SC(=O)N(CCC(=O)N3CCN(C)CC3)C2=O)cc1 | -4 | -1 | -2 | 1 | 26 | 53 | 25 | i
COc1ccc(OCCCC(=O)N(CCC2=CCCCC2)c2c(N)n(Cc3ccccc3)c(=O)[nH]c2=O)cc1 | . | 12 | 2 | -1 | . | 6 | . | .
CC(NC(=O)C1CC1)C(c1cccs1)N1CCN(c2ccccc2)CC1 (stereo not drawn) | -1 | . | 0 | -4 | 3 | -5 | -2 | i
CC1CC(C)CN(CCOc2ccc(Br)cc2)C1 (stereo not drawn) | . | 9 | 6 | 9 | 4 | 45 | 17 | i
COc1cc(NC(=S)NC(=O)c2ccc(C(C)(C)C)cc2)ccc1NC(=O)c1cccs1 | . | 16 | -2 | -1 | 5 | 71 | -4 | i
CC(NC(=O)CNC(=O)C1CCCCC1)c1cccc(Cl)c1 (stereo not drawn) | -13 | 13 | -1 | 2 | -7 | -8 | -7 | .
CCC(=O)Nc1cc(C(=O)OCC(=O)c2ccccc2Cl)ccc1C | -19 | -48 | 3 | 3 | -6 | -13 | -3 | i
Nc1cc([N+](=O)[O-])ccc1N1C(=O)CCCC1=O | . | 7 | 0 | 0 | 18 | -8 | 46 | i
Cc1ccc(S(=O)(=O)Nc2ccc(Cl)cc2)cc1NC(=O)c1cc2c(s1)CCCC2 | -3 | 7 | -1 | -17 | 4 | 20 | 1 | i
CC1=C(C(=O)OC(C)C)C(c2cccnc2)n2ncnc2N1 (stereo not drawn) | -20 | -22 | 6 | 7 | 0 | 2 | -6 | i
COc1cc(OC)c2nc(C)c3c(c2c1)N(c1ccc(O)cc1)CC3 | -6 | -196 | -13 | -6 | -14 | 20 | -5 | i
CC(=O)c1ccc(N=Nc2ccc(N(C)C)cc2)cc1 | -12 | -487 | 13 | -1 | 14 | 36 | 4 | i
COc1ccc(-c2nnc(SCC(=O)N3CCOCC3)n2C)cc1OC | . | -18 | -3 | 7 | 6 | -16 | 0 | .
CC(C)CC(N=Cc1c(O)c2ccccc2oc1=O)C(=O)O (stereo not drawn) | . | -7 | 0 | 5 | 23 | . | -4 | i
CCOC(=O)C(C)Oc1cccc2c(=O)n(CC(=O)NCc3ccccc3)ccc12 (stereo not drawn) | 10 | -157 | 19 | -4 | -8 | 43 | -3 | i
Oc1ccc(C=NNc2nc3ccccc3s2)c(O)c1 | -27 | -445 | -3 | -12 | . | . | . | .
Cc1ncc(C[n+]2ccc(C)c(C)c2)c(N)n1 | -10 | -40 | 2 | 2 | . | -6 | . | i
N#Cc1nc(-c2ccc(Cl)cc2)oc1NCc1ccco1 | 2 | -28 | 7 | 5 | 1 | 6 | -1 | i
O=C1c2ccccc2S(=O)(=O)c2cc(N3CCC4(CC3)OCCO4)ccc21 | . | -136 | . | . | . | -10 | . | i
Cn1c(C(=O)N2CCN(c3ncccn3)CC2)cc2c(=O)n(C)c3ccccc3c21 | 7 | -3 | 4 | 3 | 2 | -5 | -4 | i
O=C(NCC(O)c1ccccc1)c1ccc(Cl)c(S(=O)(=O)N2CCCC2)c1 (stereo not drawn) | 11 | . | 11 | -19 | . | -9 | . | i
COc1cccc(C(=O)Nc2c(C)nn(-c3ccccc3)c2C)c1 | . | 6 | 10 | -5 | -2 | 6 | -2 | i
COc1cc(S(=O)(=O)N2CCC(c3nc4ccccc4s3)CC2)ccc1S(=O)(=O)N1CC(C)CC(C)C1 (stereo not drawn) | 3 | . | -2 | -1 | -3 | 5 | -5 | i
CCOc1ccc(C(=O)Nc2ccc(CN3CCOCC3)cc2)cc1Br | -12 | -22 | 5 | -7 | 0 | . | -1 | i
Cc1cc(/C=N/NC(N)=O)c(C)c(CO)c1 | -9 | . | 5 | -1 | -4 | -8 | -8 | i
O=C(COc1ccc(-n2cnnn2)cc1)Nc1cc(Cl)cc(Cl)c1 | -7 | -8 | -8 | -15 | . | . | . | .
Oc1ccc2ccccc2c1N=Nc1nccs1 | -38 | 17 | 4 | -4 | 45 | 22 | 48 | i
Cc1ccc(C(=O)NNC(=O)C2CC2)cc1Br | -19 | -15 | -2 | -1 | -5 | 1 | -9 | .
CCC1CCCCN1CCNC(=O)CCS(=O)(=O)c1ccc(Br)cc1 (stereo not drawn) | -2 | 16 | 4 | 3 | 1 | -12 | -12 | i
O=C(N/N=C/c1cccnc1)C(O)c1ccccc1 (stereo not drawn) | -13 | 16 | 2 | 6 | -4 | 1 | 2 | .
Cc1ccc(/C(N)=N/OC(=O)c2ccc(C)cc2Cl)cc1 | -46 | -133 | -3 | 0 | -6 | 1 | 5 | i
Cc1cccc(OS(=O)(=O)NC(=O)OCC2CCCN3CCCCC23)c1 (stereo not drawn) | -10 | 1 | -6 | 1 | 3 | -15 | 6 | i
CN(C)S(=O)(=O)n1cc(/C=C(\NC(=O)c2ccccc2F)C(=O)N2CCOCC2)c2ccccc21 | -6 | 5 | -8 | -3 | -15 | 2 | -18 | i
N#Cc1ccccc1S(=O)(=O)N1CCN(S(=O)(=O)c2ccc(Br)c(C(=O)O)c2)CC1 | -19 | -2 | 0 | 3 | 16 | -7 | 4 | i
Cc1nc(N2CCN(C)CC2)c2c(C)c(C(=O)Nc3ccc(F)cc3)sc2n1 | -13 | . | 1 | 1 | -5 | 2 | -11 | i
CC(C)c1ccccc1NC(=O)COC(=O)c1cc([N+](=O)[O-])ccc1N1CCOCC1 | 7 | -4 | 1 | -2 | . | -5 | . | i
Cc1ccccc1CSCC(=O)N/N=C/c1cccs1 | -20 | . | 6 | -2 | 0 | -12 | 1 | .
CN(C(=O)c1cccc(NC(=O)Cc2ccc(NC(=O)C3CCCN(C(=O)c4ccccc4)C3)cc2)c1)C1CCC1 (stereo not drawn) | 1 | 12 | 0 | -4 | . | . | . | .
O=C(c1ccc2nc(N3CCOCC3)sc2c1)N1CCC(Cc2ccccc2)CC1 | 15 | 27 | -6 | -7 | -1 | 20 | -8 | i
S=c1[nH]ncn1/N=C/c1ccc(Br)cc1 | . | . | -3 | 1 | 4 | -6 | 0 | i
CCCCC(=Nc1ccccc1OC)C1=C(O)CC(c2ccccc2)CC1=O (stereo not drawn) | . | -6 | 4 | 6 | 1 | -10 | -11 | i
Continued:
SMILES | UUG fidelity | HIV Env fusion | MT1-MMP act inh | MT1-MMP act inh RFP | PABP polyA inh | CSC inhib | eIF4H inh | Rce1 inhib | others
COc1ccc(C(=O)NC(=O)COC(=O)c2ccc3ncsc3c2)cc1 | . | . | . | . | 4 | -18 | -15 | i
COc1cc(/C=N/NC(=S)NCCN2CCOCC2)ccc1O | -19 | -11 | 7 | 4 | 18 | -3 | -7 | i
O=C(c1ccccc1-c1ccccc1)N1CCOCC1 | -8 | -25 | -1 | 2 | 5 | -8 | 8 | i
c1ccc(CSc2nnc(-c3ccco3)n2Cc2ccccc2)cc1 | -16 | . | -6 | -5 | -17 | 6 | -10 | i
O=C(N/N=C\C=C\c1ccc2c(c1)OCO2)c1cccnc1 | -14 | -4 | -2 | -1 | -3 | 8 | -2 | i
COc1ccccc1Cn1c(=S)[nH]c2cc(C(=O)NCc3cccnc3)ccc2c1=O | 0 | -5 | 5 | -7 | -4 | 40 | -8 | i
COCCNc1ncnc2c1ncn2[C@H]1CN(Cc2ccco2)C[C@@H](CO)O1 | -20 | 5 | 1 | 10 | . | . | . | .
COc1cccc([C@@H]2Oc3ccc(OC)cc3C(=O)[C@H]2OC(=O)NCc2ccc3c(c2)OCO3)c1 | . | . | . | . | -5 | 6 | -4 | i
COc1ccccc1NC(=O)C/C(C)=N/NC(=O)c1ccccn1 | -34 | 9 | . | . | -12 | -11 | -12 | i
CN(C)/C=C/C(=O)c1cccc(Cl)c1 | -9 | -47 | 0 | 3 | 2 | 2 | 11 | i
CCN(CC)CCN(Cc1cc2cc3c(cc2[nH]c1=O)OCO3)C(=S)NC | -17 | 5 | 2 | 3 | -4 | -5 | 13 | i
O=C(Nc1ccc(S(=O)(=O)Nc2nccs2)cc1)c1nn(-c2ccccc2)ccc1=O | -7 | -4 | -3 | 2 | 44 | -6 | 77* | i | eIF4H inh retest=75*;PABP polyA inh retest=36
CC1CC(C)CN(c2ncc3c(n2)CC(c2ccccc2Cl)CC3=O)C1 (stereo not drawn) | -22 | . | -6 | -7 | -7 | 84* | -5 | i
COc1cc(/C=N/NC(=O)c2ccc(NC(=O)C3CC3)cc2)ccc1OC(C)=O | -19 | -33 | 10 | 8 | 7 | 8 | 5 | i
COc1ccc(Cn2nnnc2C(c2ccccc2)N2CCN(C3CCCC3)CC2)cc1 (stereo not drawn) | -6 | . | 0 | -1 | 2 | . | -13 | i
CCc1ccc(C(=O)C(C)OC(=O)c2nc3nc(C)cc(C)n3n2)cc1 (stereo not drawn) | -27 | -85 | 7 | 5 | . | -18 | . | i
FC(F)(F)c1ccccc1NC(=S)N/N=C1\CC2CC=CC12 (stereo not drawn) | . | -10 | 3 | -2 | 12 | . | 6 | .
Fc1ccccc1NC(=S)Nc1cccc2cnccc12 | . | 7 | -9 | -9 | 2 | 4 | 58* | i | eIF4H inh retest=74*;PABP polyA inh retest=23
CN(C)c1nc2n(c(=O)n1)CCO2 | . | . | 9 | 3 | -4 | -2 | -4 | i
O=C(N/N=C/c1cccn1-c1ccc([N+](=O)[O-])cc1)C(O)c1ccccc1 (stereo not drawn) | -13 | . | 1 | 0 | 1 | -10 | -4 | i
